From PubChem BioAssay
PINK1 expr mod: PINK1 expression modulation; PINK1 immunofluorescence, high-content cytometry, 24 h; Potency, µM (titrated, usually from 76.6 µM), for the others: at the top dose activation (PINK1 increase), most hits filed as activators; 410,000 compounds, 0.2% hits; AID 624263; active = well fitted activation curve with a large enough effect; inconclusive = small, poorly fitted or top-dose-only effect; inactive = flat fitted curve, though single readings scatter; cell line not stated here;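 further: potency means the concentration at half of the fitted maximal effect; % of control where 0% means no effect; nearly all actives have a fitted effect of over 65% in size; a mitochondrial uncoupler was the plate control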
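Fluorescence from anti-PINK1 antibody, together with nuclear and cell stains, was scanned on a laser-scanning cytometer. Before staining, stable-line cells were incubated 24 hours with compounds at 5 concentrations; primary antibody 12 h at 10 degrees C.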
TRPML1 blocker: human mucolipin-1 channel inhibition; Q9GZU1; TRPML1-inducible cells, Ca2+ dye fluorescence, FDSS; stronger effect = lower value; inhibition of EC80 agonist-evoked calcium signal; activity change, negative = inhibition, % (concentration not given with the values); 390,000 compounds, 0.02% hits; AID 624415; in the data active means activity change below about -50%; inconclusive means about -30% to -50%; inactive means above about -30%;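 further: stimulus is agonist 54-4 at its EC80 concentration; on the % scale 0 is the no-effect control and ±100 the full control effect; the text of the record puts the active cut at -80%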
Target sequence (Q9GZU1 whole entry, looked up): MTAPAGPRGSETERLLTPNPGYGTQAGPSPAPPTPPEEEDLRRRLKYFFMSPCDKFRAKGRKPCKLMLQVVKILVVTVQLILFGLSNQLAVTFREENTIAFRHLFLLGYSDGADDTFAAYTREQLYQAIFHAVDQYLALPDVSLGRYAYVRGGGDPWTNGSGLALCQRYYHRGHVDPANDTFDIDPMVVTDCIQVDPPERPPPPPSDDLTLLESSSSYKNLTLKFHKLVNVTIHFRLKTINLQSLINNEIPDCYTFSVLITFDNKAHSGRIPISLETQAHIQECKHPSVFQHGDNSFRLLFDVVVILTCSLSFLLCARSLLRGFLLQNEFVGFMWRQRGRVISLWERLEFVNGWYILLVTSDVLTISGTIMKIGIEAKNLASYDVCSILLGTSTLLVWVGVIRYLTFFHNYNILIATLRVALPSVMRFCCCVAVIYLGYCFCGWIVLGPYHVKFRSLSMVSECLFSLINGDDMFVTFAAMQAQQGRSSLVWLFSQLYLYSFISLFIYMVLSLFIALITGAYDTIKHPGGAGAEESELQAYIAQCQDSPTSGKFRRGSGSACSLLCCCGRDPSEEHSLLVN
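Tet-induced TRPML1-DL cells loaded with Ca8 no-wash calcium dye were read kinetically on FDSS. Compound addition was followed by EC80 agonist 54-4 (4 uM final); inhibition was read over 110 s.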
D2 agonist: agonists of human D2 dopamine receptor (beta-arrestin); activation, % (no concentration beside the values); AID 624465; 360,000 compounds, 0.084% hits; DiscoveRx PathHunter D2 beta-arrestin, luminescence, 90 min; 100% = 57 uM dopamine signal; in the data active = activation above about 40%; inconclusive = about 15% to 40%; inactive = below about 15%; further: compound concentration not given in the record; the text of the record calls up to 30% inactive
Target sequence (P14416 whole entry, looked up): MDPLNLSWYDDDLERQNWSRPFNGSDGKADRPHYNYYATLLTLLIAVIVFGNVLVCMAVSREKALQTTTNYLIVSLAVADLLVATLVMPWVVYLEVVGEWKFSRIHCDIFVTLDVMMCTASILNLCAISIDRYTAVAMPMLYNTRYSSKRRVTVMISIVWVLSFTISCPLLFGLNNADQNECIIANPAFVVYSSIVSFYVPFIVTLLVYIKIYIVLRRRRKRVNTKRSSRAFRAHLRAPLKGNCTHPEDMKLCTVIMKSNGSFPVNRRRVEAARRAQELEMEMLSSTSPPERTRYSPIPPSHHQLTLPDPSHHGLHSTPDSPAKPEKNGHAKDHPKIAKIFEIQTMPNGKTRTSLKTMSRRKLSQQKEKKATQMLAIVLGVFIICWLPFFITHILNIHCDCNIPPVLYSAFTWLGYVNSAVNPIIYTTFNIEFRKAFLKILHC
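DiscoveRx PathHunter D2 beta-arrestin cells (2,100/well) attached overnight, then compound-stimulated 90 min at 37 C in HBSS/10 mM HEPES/0.1% Tween-20 buffer; beta-galactosidase complementation read by luminescence after 1 h at ambient temperature. Dopamine 57 uM final (EC100) as control.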
Six1-Eya2 blk: blocks human Six1 binding to Eya2 | 360,000 compounds, 0.56% hits | AID 651725 | activity change, % (concentration not given with the values) | AlphaScreen GST-Six1/His-Eya2 binding, biochemical; stronger effect = lower value; control for the full effect not named in the record; in the data active = activity change below about -65%; inconclusive = about -30% to -65%; inactive = above about -30%; further: on the % scale 0 is the no-effect control and ±100 the full control effect
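AlphaScreen with GST-Six1 and His-Eya2 (5X mix: 250 nM and 500 nM), glutathione donor and nickel acceptor beads; buffer 50 mM Tris pH 8.0, 300 mM NaCl, 1 mM TCEP; 1 h at 37 C in the dark.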
TRPML1 agonist: human mucolipin-1 channel agonism; TRPML1-expressing cells, Ca2+ dye fluorescence, FDSS; host cell line not named in the record; reference of the full effect not given here; 410,000 compounds, 0.12% hits; activation, % (no concentration beside the values); in the data active = activation above about 50%; inconclusive = about 30% to 50%; inactive = below about 30%; further: 0% is about no effect; the text of the record puts the active cut at 80%
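In this qHTS format, compounds were pin-transferred onto Ca8-dye-loaded TRPML1-DL cells induced with Tet overnight, and intracellular Ca2+ fluorescence was recorded kinetically for 110 s after a 10 s baseline. A subsequent 4uM final 54-4 (EC80) addition followed by a second 110 s read served as the antagonist phase.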
CtBP-E1A blk: CtBP/E1A binding inhibition; AID 651724; 340,000 compounds, 0.49% hits; AlphaScreen GST-E1A/His-CtBP binding, 1536-well; stronger effect = lower value; control for the full effect not named in the record; activity change, % (concentration not given with the values); in the data active means activity change below about -65%; inconclusive means about -30% to -65%; inactive means above about -30%; further: on the % scale 0 is the no-effect control and ±100 the full control effect
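AlphaScreen with 125 nM GST-E1A and 125 nM His-CtBP (5X stocks) in Tris pH 8.0, 300 mM NaCl, BSA, Tween 20, TCEP. Compounds preincubated 2 h at 37 deg C, then glutathione donor/nickel acceptor beads added for 1 h at 37 deg C in dark.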
Active calls of the source: *; ? = inconclusive; / = not tested or not shown; & = joins results of further samples; [ ] = another dose, or the depositor's remark.

Every second line gives: PINK1 expr mod	TRPML1 blocker	D2 agonist	Six1-Eya2 blk	TRPML1 agonist	CtBP-E1A blk
[1] CSc1ccc(C2=CC(=O)C[C@H](c3ccc(Cl)cc3)C2)cc1
→ 3.0%	4	0.2	5	1.9	/
[2] CC(C)CC(C(=O)NCC1CCCO1)N(C(=O)Cn1nnc(-c2ccc(F)cc2)n1)c1ccccc1F (centres undefined)
→ 1.7%	24	-4.1	0	0.0	3
[3] CC1(C(=O)NS(=O)(=O)c2ccc(Cl)cc2)CCN1C(=O)COc1ccc(Cl)cc1 (centres undefined)
→ 1.4%	/	-6.0	3	-0.5	12
[4] O=C(Nc1cccc(C(=O)OCc2cc(=O)n3c4c(sc3n2)CCCC4)c1)c1cccc(F)c1
→ -1.8%	46	/	/	1.4	/
[5] c1ccc(Cn2c(NCc3ccccn3)nc3ccccc32)cc1
→ 0.7%	-9	-2.2	0	1.1	-8
[6] CCOc1ccc(-n2c(SCC(=O)NCc3ccccc3)nc3n[nH]c(C)c3c2=N)cc1
→ 11%	-23	/	/	1.6	/
[7] Cc1ccc(C)c(NC(=O)CS(=O)(=O)c2cn(C)c3ccccc23)c1
→ 5.0%[38.3 µM]	-9	-0.1	19	0.1	89
[8] O=C1CN(C(=O)Cc2ccc(F)cc2)C(c2ccccc2)c2cc(Br)ccc2N1 (centres undefined)
→ -1.5%	11	/	/	2.7	/
[9] COC(=O)[C@H]1C[C@@H]1[C@H](N)c1ccccc1
→ 0.7%	-10&10	-2.6	2	-0.5&0.6	5
[10] Cc1ccc(NC(=O)Cn2cnc3nc4c(cc3c2=O)CCCC4)cc1Cl
→ -0.9%	14	/	/	-0.8	/
[11] CN1C(=O)/C(=C/c2ccccc2F)Sc2ccc(C(=O)NCC3CCCO3)cc21 (centres undefined)
→ 2.8%	-15	-2.7	15	-0.6	-17
[12] O=c1[nH]c2ccc(Br)cc2c(-c2ccccc2)c1N1CCOCC1
→ 8.3%	5	-0.4	10	0.3	-8
[13] COc1ccc(S(=O)(=O)N2CCN(C)CC2c2ccccc2)cc1OC (centres undefined)
→ 0.3%	-3	-7.5	-1	0.7	-1
[14] O=S(=O)(c1cc(Cl)cc(Cl)c1)N1CCC2CC1c1cc(Cl)ccc12 (centres undefined)
→ 4.0%	5	0.3	19	0.2	11
[15] CC/C(=N\Nc1ccc([N+](=O)[O-])cc1)c1ccccc1
→ ?	9	-6.4	11	2.2	20
[16] COc1cccc(CNc2nc3ccccc3n2C)c1O
→ 0.8%	8	-5.4	7	0.7	-13
[17] CCn1cc(C(=O)OCc2cccc(Br)c2)c(=O)c2ccc(C)nc21
→ 4.2%[38.3 µM]	-10	1.0	-14	0.9	-12
[18] CCN(CC)CCCN(Cc1cc2cc3c(cc2[nH]c1=O)OCO3)C(=S)NCc1ccco1
→ -1.6%	6	-7.1	-2	-0.3	-9
[19] CC(C)OCCCNc1ncnc2c1cnn2-c1ccccc1
→ 14%	1	-2.4	-6	-1.5	0
[20] Cc1ccc2nc(-c3ccccn3)oc2c1
→ -1.2%	-9	-2.4	4	3.2	-2
[21] C/C(=N\Nc1nc2ccccc2[nH]1)c1ccc(C)o1
→ 0.0%	0	11	-18	-0.4	-1
[22] CCc1cccc(NC(=S)N2CCC(c3ccccc3)C2)c1 (centres undefined)
→ 1.8%	15	0.2	2	1.4	-1
[23] COc1ccc(NC(=O)CSc2nnc(-c3ccccc3)n2Cc2ccco2)cc1OC
→ 1.1%[38.3 µM]	-2	-1.6	-8	-0.1	-10
[24] Cc1ccc(-n2ncc3c(SCc4cccnc4)ncnc32)c(C)c1
→ 4.1%	23	-1.9	-2	0.6	-4
[25] CC(=O)Nc1nonc1-c1nnc(SCc2ccc(F)cc2Cl)n1C
→ 1.4%	-2	/	/	2.3	/
[26] COC(=O)c1ccc(-c2ccc(F)cc2)nc1C
→ -1.2%	10	-1.8	7	0.6	6
[27] CCOc1ccc(NC(=O)CSc2nc3c(oc4ccccc43)c(=O)n2CCOC)cc1
→ -0.7%	-12	/	/	0.1	/
[28] O=C1NC(c2ccccc2)=N/C1=C/c1ccco1
→ 10%	-7	-4.3	9	0.4	-6
[29] COc1ccccc1CNC(=O)c1cc2ccccc2o1
→ -2.4%	17	-5.8	-4	1.3	13
[30] Cc1ccc(CNC(=O)C2CCN(C(=O)Nc3ccccc3)CC2)cc1
→ -2.9%	-3	-1.2	-4	-0.5	4
[31] Cc1cccn2c(=O)c3cc(C#N)c(=NC(=O)c4ccco4)n(Cc4ccco4)c3nc12
→ ?	-15	-0.8	-4	-0.6	-1
[32] CCOc1ccccc1NC(=O)Cn1c(=O)n(-c2ccc(C)c(C)c2)c(=O)c2c(C)c(C(=O)N(C)C)sc21
→ -0.6%	-20	/	/	1.5	/
[33] Cc1ccc(C)c(N2CCN(C(=O)Cn3cnc4onc(-c5ccc(F)cc5)c4c3=O)CC2)c1
→ -4.6%	4	/	/	1.3	/
[34] COc1ccc(-c2nnc(-c3ccc(F)cc3)o2)cc1
→ 1.8%	2	-0.6	2	-1.4	9
[35] COc1ccccc1NC(=O)C(C)Sc1nnc2ccccn12 (centres undefined)
→ 1.9%	-2	-2.9	-9	0.2	/
[36] COc1ccc(CNC(=O)CSc2ncn[nH]2)cc1OC
→ 1.2%	-6	10	-9	0.1	-11
[37] CCc1nnc(NC(=O)c2cc(OC)c(OC)cc2[N+](=O)[O-])s1
→ 0.3%	-2	-6.7	-1	-1.6	7
[38] CCc1c(C#N)c(=O)[nH]c(=O)n1-c1ccccc1
→ 1.6%	10	1.7	-2	0.6	/
[39] O=S(=O)(Nc1ccc(Cl)cc1)c1ccc(NS(=O)(=O)c2ccc3c(c2)OCCO3)cc1
→ 2.2%	3	/	/	7.5	/
[40] Cc1c2cnn(CC(=O)N3CCCCC3)c(=O)c2c(C)n1Cc1ccc(F)cc1
→ -0.7%	-8	/	/	0.0	/

Down the list, as entered above:
Six1-Eya2 blk, entries 27–38 → /, 9, -4, -4, -4, /, /, 2, -9, -9, -1, -2

Next part
Every second line gives: PINK1 expr mod	TRPML1 blocker	D2 agonist	Six1-Eya2 blk	TRPML1 agonist	CtBP-E1A blk
[41] COc1ccc(C2C(C(=O)OCC(=O)N3CCCCC3)CCC(=O)N2c2ccc(OC)cc2)cc1 (centres undefined)
→ 0.1%	10	-4.2	0	-0.7	8
[42] CCCC(C)C(=O)Nc1ccccc1C(=O)OCC (centres undefined)
→ 1.3%	-27	-5.3	29	2.1	16
[43] COCCN(C(=O)COC(=O)CCC(=O)c1ccc(C)cc1)c1c(N)n(Cc2ccccc2)c(=O)[nH]c1=O
→ -2.3%	23	-5.5	6	-0.2	-3
[44] CC(=O)N1CCCc2cc(S(=O)(=O)N3CCCC(C(=O)N4CCN(c5cc(C)ccc5C)CC4)C3)ccc21 (centres undefined)
→ 0.3%&-1.6%	-5&-7	-6.5	1	1.3&-0.3	17
[45] CCOC(=O)C1CCN(C(=S)Nc2cc(C)ccc2C)CC1
→ 0.6%	-3	-4.2	-5	-0.6	-5
[46] OCC1OC(n2cnc3c(=S)nc[nH]c32)CC1O (centres undefined)
→ -0.7%	15	-3.2	-2	0.7	1
[47] CN(C)c1ccc(CNC(=O)CCS(=O)(=O)c2ccc3c(c2)oc(=O)n3C)cc1
→ 1.7%&0.0%	0&-7	3.6	2	-0.6&-0.4	/
[48] Cc1c(Cl)cccc1NC(=O)CCS(=O)(=O)c1ccc2c(c1)CC(=O)N2C
→ 3.4%	16	/	/	-0.7	/
[49] NC(=O)Cn1cnc2c(nnn2-c2cccc(Cl)c2)c1=O
→ 0.3%	/	-0.7	-1	/	1
[50] Cc1ccc(N=C2NC(=O)CS2)c(C)c1
→ -0.9%	1	-3.6	-4	-0.5	0
[51] Cc1ccc(NC(=O)C[n+]2ccccc2)cc1C
→ -2.0%	-13	-4.8	0	-0.9	/
[52] O=C(CCNC(=O)c1ccccc1Cl)NCC1CCCO1 (centres undefined)
→ 2.3%	10	-2.2	3	-0.2	5
[53] COCc1cc(=O)[nH]c(=S)[nH]1
→ -0.4%	20	3.0	6	0.4	-1
[54] COc1ccccc1OCC(=O)Nc1nc(-c2ccc(Br)cc2)ns1
→ -1.1%	-3	/	/	1.8	/
[55] CCN1CCCc2cc(CN(CCN3CCOCC3)C(=S)Nc3ccc(C)cc3)ccc21
→ 1.0%	-15	1.5	?	-1.4	?
[56] CN(C(=O)c1ccc(NC(=O)Cc2cccc(NC(=O)C3CCN(C(=O)C4CCC4)CC3)c2)cc1)C1CC1
→ 1.0%	-12	-0.5	3	-0.1	0
[57] Cc1[nH]c2ccc(OC(=O)N3CCOCC3)cc2c1C(=O)OC(C)C
→ 4.8%[38.3 µM]	-1	-3.3	0	-0.3	-2
[58] O=C(O)C1CCCCN1S(=O)(=O)c1ccccc1 (centres undefined)
→ 0.9%	-13	-2.5	4	0.5	2
[59] C=Cc1ccc(Cn2c(C(=O)O)c(CNC3CCCCC3)c3ccc(OC)cc32)cc1
→ -0.6%	-6	/	/	-0.2	/
[60] CCC(C(=O)Nc1cccc(C(=O)O)c1)c1ccccc1 (centres undefined)
→ 5.1%	11	-1.5	-3	0.9	0
[61] COc1ccc(C(=O)CSc2nnc(CNC(=O)c3ccco3)n2C)cc1OC
→ -2.3%	8	4.4	0	-0.7	6
[62] CCOc1ccc2nc(NC(=O)c3ccc(S(=O)(=O)N4CCOCC4)cc3)sc2c1
→ 1.1%	5	-2.3	4	1.5	0
[63] C=CCn1c(COc2ccc(F)cc2)nnc1SCC(=O)c1c[nH]c2c(CC)cccc12
→ -0.4%	-16	0.7	16	0.0	17
[64] CC(N)c1csc(Nc2cc(Oc3ccccc3)ncn2)n1 (centres undefined)
→ 0.2%	/	-2.7	?	0.1	-68*
[65] C[C@@H]1CN([C@H](C)CO)C(=O)CCCn2nncc2CO[C@H]1CN(C)CC1CC1
→ 1.0%	1	-7.8	8	-0.5	7
[66] O=C(c1ccc(F)cc1)C1CCN(Cc2ccc(F)cc2)CC1
→ 3.2%	-2	-1.1	-3	-0.2	1
[67] Nc1c(S(=O)(=O)c2cccs2)c2nc3ccccc3nc2n1Cc1ccc2c(c1)OCO2
→ 0.4%[38.3 µM]	-3	1.5	12	0.8	7
[68] N#C/C(=C\c1ccccc1C(F)(F)F)C(=O)Nc1ccccc1F
→ 8.9%	4	4.7	0	0.6	9
